Screening results as filed in PubChem BioAssay.
Choline anaer gr: choline-fed anaerobic bacterial growth inhibition; 55,000 tested, 0.2% active; calls only; Gram-negative bacterium anaerobic choline minimal medium, absorbance growth; active compounds read low; many inactives read as strong as hits in the columns shown; AID 1963822;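 active = growth z-score on choline under -2 at 7 or 20 h with little or no fall on glycerol, limits in tiers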;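 also: stock transfer was 300 nL into about 50 µL; the organism is E. coli; final concentration not given here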
Choline anaer gr early: recorded beside Choline anaer gr, whose call it bears; z-score; measured here: choline growth z-score, timepoint 1;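 score of optical density at 7 h as mean of two plates; lower means less growth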
Numbers without * were called inactive; i = inactive; & = joins results of further samples. These rows are one share of the data (hit frequency here may not be typical).

SMILES	Choline anaer gr	Choline anaer gr early
Cc1ccc(N(Cc2nc3nc(C)cc(=O)n3[nH]2)S(=O)(=O)c2ccc(Cl)cc2)cc1	i	-1.1
CCOC(=O)CC1=CC(SC(C)C(=O)Nc2ccc3c(c2)OCCO3)=Nc2ccccc2N1 (stereo not given)	i	-0.44
Cc1ccc(C)c(-n2ncc3c(N(C)C)ncnc32)c1	i	1.2
CN(C)S(=O)(=O)c1ccc2c(c1)nnn2CCCC(=O)N1CCN(c2ccc(F)cc2)CC1	i	-0.75
O=C(Nc1ccccc1Br)N1CCN(c2ccc(=O)n(-c3ccc(F)cc3)n2)CC1	i	-0.81
O=C(CSc1nnc2n(CC3CCCO3)c(=O)c3sccc3n12)Nc1ccc2c(c1)CCC2 (stereo not given)	i	0.11
CC(C)CCNS(=O)(=O)c1ccc2c(c1)CCN2C(=O)CCC(=O)O	i	-0.57
COC(=O)C1CCN(c2nc3ccccc3[nH]2)CC1	i	-1.7
Cc1nc(-n2nc(C)c(CC(=O)N3CCCC3)c2C)sc1C	i	0.36
Cn1c(=O)c2nc(SCCC(=O)Nc3ccccc3)n(C)c2n(C)c1=O	i	0.56
CC1CCc2[nH]nc(C(=O)N3CCN(C)CC3)c2C1 (stereo not given)	i	-0.52
O=c1c2ccccc2n2c(SCc3ccccc3)nnc2n1Cc1ccccc1	i	0.29
O=C1CC(c2cc(Br)ccc2F)c2scc(S(=O)(=O)c3ccccc3)c2N1 (stereo not given)	i	0.08
CC(C(=O)Nc1ccccc1)n1nnc2sc3c(c2c1=O)CCCC3 (stereo not given)	i	-1.2
CCC(=O)Nc1nc(-c2ccc(F)cc2)ns1	i	-0.07
CCCn1cc(C(=O)NC)c(S(=O)(=O)N2CCSCC2)n1	i	0.6
CCN1CCN(c2ccc(NS(=O)(=O)c3c(C)nc4sccn4c3=O)cc2Cl)CC1	i	1.3
COc1ccc(-c2nc(CN3CCN(C(=O)c4ccc(OC)c(OC)c4)CC3)c(C)o2)cc1	i	0.53
Cc1cc(Nc2ccccc2O)nc(C)n1	i	-1.5
CCn1nc(C)c2ccnc(N3CCC(C(=O)N4CCN(c5cccc(OC)c5)CC4)CC3)c21	i	0.48
CCN(c1ccccc1)S(=O)(=O)c1ccc2[nH]cc(C(=O)NCc3ccc(C)cc3)c(=O)c2c1	i	0.14
CCOc1ccc(CNC(=O)CC2Sc3ccc(S(=O)(=O)N(C)C)cc3N(C)C2=O)cc1 (stereo not given)	i	0.97
COc1ccccc1C1C2=C(CC(C)(C)CC2=O)Nc2ccccc2N1C(=O)C(C)C (stereo not given)	i	-1.3
CN1CCc2c(sc(-n3cccc3)c2CNC(=O)Nc2cccc(F)c2)C1	i	1.1
CCCCC[C@H](O)/C=C/[C@@H]1[C@@H](C/C=C\CCCC(=O)O)[C@H](O)C[C@H]1O	i	0.09&-0.23&0.38
CC(C)CN1CCN(S(=O)(=O)c2ccc(-c3nnc(C4CCC4)o3)o2)CC1	i	0.72
CCCCC(=O)Nc1c(C(=O)OCC)[nH]c2ccccc12	i	0.71
Nc1ccc(Cn2cnc(-c3nc(-c4ccc(F)cc4)no3)c2)cc1	i	-1.4
O=C(NC1CCCCC1)c1nc(-c2ccc(S(=O)(=O)N3CCOCC3)cc2)no1	i	1.2
COc1ccc(CC(=O)Nc2nnc(C3CC(=O)N(c4ccc(OC)cc4)C3)o2)cc1 (stereo not given)	i	-0.61
CC(=O)Nc1ccc(-c2nc(CN3C(=O)COc4ccccc43)no2)cc1	i	0.66
Cc1ccc(-c2noc(-c3ccc(=O)n(CC(=O)Nc4ccccc4Br)c3)n2)cc1	i	0.05
CC1CCCN(S(=O)(=O)c2ccc(-c3nnc(C4CC4)o3)o2)C1 (stereo not given)	i	1.1
O=C(c1cc(-c2ccccc2)on1)N(Cc1cccc(Br)c1)C1CCS(=O)(=O)C1 (stereo not given)	i	1.5
O=C(CCc1nc2ccccc2n(CC(=O)Nc2ccc3c(c2)OCO3)c1=O)NCc1ccccc1	i	-0.2
COc1ccc(Nc2ncnc3c2nc2n3CCCC2)c(OC)c1	i	-0.6
CCCOc1ccc(Cn2c(=O)c3sccc3n3c(=S)[nH]nc23)cc1	i	1.5
Cc1cc(Cl)ccc1NC(=O)C(Cc1ccccc1)NS(=O)(=O)c1cccc2cccnc12 (stereo not given)	i	1.7
Cc1nc(Nc2ccc(NC(=O)C(C)(C)C)cc2)cc(N2CCCC2)n1	i	0.28
CC1CCCCN1S(=O)(=O)c1ccc2c(c1)CCC(=O)N2CC(=O)Nc1ccc2c(c1)OCCO2 (stereo not given)	i	0.6
COc1ccc(NC(=O)C2CCCN(c3ncnc4c3oc3ccccc34)C2)cc1 (stereo not given)	i	0.51
COc1ccc(-n2c(CN3CCN(S(=O)(=O)c4ccc(Br)cc4)CC3)nc3cccnc32)cc1	i	-1
O=C(CCc1ccccc1)N1CCCN(C(=O)Nc2ccc(S(=O)(=O)N3CCOCC3)s2)CC1	i	-0.09
Cc1cc(C)n(CCc2nc3c4ccccc4n(CC(=O)Nc4ccc(F)cc4)c(=O)n3n2)n1	i	0.43
CCN1CCN(c2ncnc3c2cnn3-c2cc(C)cc(C)c2)CC1	i	0.52
CCc1cc(Sc2ccc(NC(=O)c3cccc(OC)c3)cc2)n2ncnc2n1	i	0.28
CN1C(=O)c2cc(NC(=O)c3ccccc3F)ccc2N2CCN=C12	i	-0.74
Cc1nc2cc(-c3noc(-c4ccc(Cl)cc4)n3)ccc2o1	i	-1.1
CN(C)S(=O)(=O)c1cc2c(cc1N1CCSCC1)Oc1ccccc1NC2=O	i	-0.09
Cc1sc(NC(=O)c2ccccc2)c(C(Nc2ccccn2)c2cccnc2)c1C (stereo not given)	i	-0.73
Cc1cccc(/C=C/c2ccccc2)n1	i	-1.1&-0.7
COCCn1c(CNC(=O)c2ccncc2)nc2cccnc21	i	-0.86
COc1nc(N)nc2c1ncn2C1O[C@H](CO)[C@@H](O)[C@@H]1O (stereo not given in full)	i	0.75
Cc1[nH]c2ccccc2c1C(=O)CSc1nnc2sc3ccccc3n12	i	0.15
CCCn1c(=O)c2ccccc2n2c(=O)n(CC(=O)Nc3ccccc3OC)nc12	i	0.97
Cc1cc(N2CCCC2)n2nc(CN3CCCCC3C)nc2n1 (stereo not given)	i	-1.2
COc1cccc(N2CCN(C(=O)c3cccn3-c3nnc(N4CCOCC4)s3)CC2)c1	i	-1.6
CCc1ccc(NC(=O)N2CCc3c(sc4nc(-c5ccc(OC)cc5)nn34)C2)cc1	i	-2
COc1ccc(C2=CC(c3ccc(OC)cc3)n3ncc(C(=O)Nc4ccc(Cl)cc4)c3N2)cc1 (stereo not given)	i	1.1
CCOc1cccc(CNC(=O)c2ccc(N3CCCC3)c(NC(=O)Nc3ccccc3Cl)c2)c1	i	0.13
(listing goes on)
SMILES	Choline anaer gr	Choline anaer gr early
CCc1nn2c(-c3ccccc3OC)ccnc2c1-c1ccc(F)cc1	i	1.3
O=C(O)CCSc1ncn[nH]1	i	-0.29
Cc1oc(-c2ccccc2)nc1Cn1nnc(-c2nc(-c3ccccc3Br)no2)c1C	i	-0.21
O=C(C1CCCO1)N1CCc2cc(-c3ccno3)ccc21 (stereo not given)	i	-0.17
Nc1c(C(=O)NCC2CCCO2)sc(=S)n1Cc1ccccc1 (stereo not given)	i	-0.34
CN(C)CCn1nnnc1SCC1=C(C(=O)O)N2C(=O)[C@@H](NC(=O)Cc3csc(N)n3)[C@H]2SC1	i	-1.7
Cc1nc(-c2ccc(F)cc2)sc1CCNS(=O)(=O)c1ccccc1F	i	-0.08
Cc1ccc(-c2nnc(C3CCN(S(=O)(=O)c4ccc(C)cc4C)CC3)o2)cc1	i	1.4
Fc1ccc(-c2csc(Cc3nc(Cc4ccc(Cl)cc4)no3)n2)cc1	i	1.9
Cc1nc(-c2ccc(-n3cc(C(=O)Nc4cc(Cl)ccc4C)c(C)n3)cc2)no1	i	0.83
CC1CCCN(C(=O)CN(C)S(=O)(=O)c2ccc3c(c2)C(C)(C)C(=O)N3C)C1 (stereo not given)	i	0.22
C=CCNCc1ccc(OCc2ccc3c(c2)n(C)c(=O)n3C)c(OC)c1	i	0.39
O=C(C1CCN(c2nn3cc(-c4ccc(F)cc4)nc3s2)CC1)N1CCN(c2ccccc2)CC1	i	-0.15
C=CCN1CCN(C2CCN(S(=O)(=O)c3ccc(C(C)C)cc3)CC2)C(=O)C1=O	i	-0.18
O=C(CSc1ncnc2nc(N3CCSCC3)sc12)Nc1ccc(Br)cc1	i	-0.17
CN1C(=O)Cc2cc(S(=O)(=O)NC3CC3)ccc21	i	-0.95
CCCCN(CC)C(=O)C1CCCN(c2nc3cccnc3s2)C1 (stereo not given)	i	-0.59
O=C(CSc1nnc(-c2ccc3c(c2)OCCCO3)n1C1CC1)c1ccc2c(c1)CCCO2	i	-0.09
O=C(C1CCCN1S(=O)(=O)c1cccc2cccnc12)N1CC=C(c2ccccc2)CC1 (stereo not given)	i	0.96
Cc1cc(N2CCCCC2)nc(N2CCN(C(=O)C(C)Oc3ccccc3)CC2)n1 (stereo not given)	i	1.3
Cc1nn2c(C(F)(F)F)cc(-c3ccncc3)nc2c1-c1ccc(Cl)cc1	i	0.67
C=CCn1c(SCC(=O)Nc2ccc(F)cc2)nc2scc(-c3ccc(F)cc3)c2c1=O	i	0.23
COc1cc(N2CCn3c(nc4ccccc43)C2)ccc1NC(=O)NC1CCCCC1	i	0.33
COc1ccc(Cl)cc1NC(=O)NCC(c1cccnc1)c1c[nH]c2ccccc12 (stereo not given)	i	0.74
COc1cccc(-c2cc(C(=O)N3CCN(c4ccc(N5CCOCC5)nn4)CC3)[nH]n2)c1	i	1
COCCNC(=O)CN1CCN(c2cc(C(=O)O)c3cc(NC(=O)C4CCC4)ccc3n2)CC1	i	-1.3
Cc1cc(C)n2nc(CN(C(=O)C(C)C)c3cccc(Cl)c3)nc2n1	i	0.3
CCCN(C(=O)COc1cc(=O)n(C)c2ccccc12)c1ccccc1C	i	-1.3
COc1ccc(C2CC(c3c(O)n(C)c(=S)n(C)c3=O)=NN2C(C)=O)c(OC)c1 (stereo not given)	i	-1.4
COc1ccc(CCC(=O)NCCc2csc3nc(-c4ccccc4C)nn23)cc1	i	-0.2

Twelve compounds from above, ordered by length of the SMILES, lowest first.
SMILES	Choline anaer gr	Choline anaer gr early
CN1C(=O)Cc2cc(S(=O)(=O)NC3CC3)ccc21	i	-0.95
CCCCN(CC)C(=O)C1CCCN(c2nc3cccnc3s2)C1 (stereo not given)	i	-0.59
O=C(CSc1ncnc2nc(N3CCSCC3)sc12)Nc1ccc(Br)cc1	i	-0.17
Cc1cc(C)n2nc(CN(C(=O)C(C)C)c3cccc(Cl)c3)nc2n1	i	0.3
COc1ccc(CCC(=O)NCCc2csc3nc(-c4ccccc4C)nn23)cc1	i	-0.2
Cc1nn2c(C(F)(F)F)cc(-c3ccncc3)nc2c1-c1ccc(Cl)cc1	i	0.67
COc1ccc(Cl)cc1NC(=O)NCC(c1cccnc1)c1c[nH]c2ccccc12 (stereo not given)	i	0.74
C=CCn1c(SCC(=O)Nc2ccc(F)cc2)nc2scc(-c3ccc(F)cc3)c2c1=O	i	0.23
COc1ccc(C2CC(c3c(O)n(C)c(=S)n(C)c3=O)=NN2C(C)=O)c(OC)c1 (stereo not given)	i	-1.4
COCCNC(=O)CN1CCN(c2cc(C(=O)O)c3cc(NC(=O)C4CCC4)ccc3n2)CC1	i	-1.3
COc1cccc(-c2cc(C(=O)N3CCN(c4ccc(N5CCOCC5)nn4)CC3)[nH]n2)c1	i	1
O=C(C1CCN(c2nn3cc(-c4ccc(F)cc4)nc3s2)CC1)N1CCN(c2ccccc2)CC1	i	-0.15

The listing continues.
SMILES	Choline anaer gr	Choline anaer gr early
COc1ccc(OC)c(-c2[nH]ncc2CN2CCCC2c2c(C)noc2C)c1 (stereo not given)	i	-0.03
CCN(CC)CCOC(=O)c1cc(Cl)c(N)cc1OC	i	0.13&0.26
CCCn1cnc2nc(CSc3ccccc3NC(=O)Nc3cccc(F)c3)cc(=O)n21	i	-0.84
O=S(=O)(Nc1ccc(Cn2cnc(-c3nc(-c4ccc(F)cc4)no3)c2)cc1)c1ccccc1F	i	-0.34
CC(=O)N1CCSc2ccc(S(=O)(=O)Nc3c(C)cccc3C)cc21	i	0.95
CCOc1ccccc1C1C2=C(CC(c3ccc(OC)c(OC)c3)CC2=O)Nc2onc(C)c21 (stereo not given)	i	-0.18
COc1ccccc1-c1csc(-c2nnn(-c3ccccc3)c2N)n1	i	-1.2
COc1ccc(CNC(=O)c2ccc(-n3nnc4cccnc43)cc2)c(OC)c1	i	-0.89
CN(C)CCNC(=O)c1cc2ccccn2n1	i	-1.4
Clc1ccc2c(c1)N=C(N1CCNCC1)c1ccccc1N2	i	-2.5&0.37
CCCN(CCC)C(=O)C1CCCN(c2ccc(-c3ccc(C)cc3)nn2)C1 (stereo not given)	i	1.2
O=C(NCCc1ccc(Cl)cc1)c1ccc(Oc2ccnc(-c3ccc(F)cc3)n2)cc1	i	1.1
Oc1ccccc1C1=Nc2ccccc2N=C(c2ccc(Br)cc2)C1	i	0.05
Cc1[nH]n2c(=O)cc(-c3ccccc3Cl)nc2c1-c1ccccc1	i	-1.1
c1cc(-c2noc(C3CCC3)n2)cc(N2CCOCC2)n1	i	-0.34
CCOc1ccccc1CNC(=O)c1ccc2nc(N3CCC(C)CC3)sc2c1	i	-0.28
Cc1nc(-c2cccc(-c3noc(C(=O)NCc4ccccn4)n3)c2)cs1	i	-0.8
Cc1noc(C)c1C1CCCN1C(=O)c1ccc(F)cc1 (stereo not given)	i	0.6
CCN(CC)C(=O)Cn1c(=O)c2ccccc2n2c(=S)sc(-c3ccccc3F)c12	i	0.7
O=C(NC(=NCc1ccncc1)Nc1cccc(C(F)(F)F)c1)c1ccc2c(c1)OCO2	i	-0.09
COc1ccc2cc3c(N)nn(C(=O)c4ccccc4Cl)c3nc2c1	i	0.92
